Bead autofluor: counter-screen for toxin protease inhibitors: compound fluorescence. 360,000 compounds, 3.1% hits. fluorescence intensity (concentration not given with the values). AID 624483. compound autofluorescence counterscreen, microsphere flow cytometry; hits give high values;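 active = at least 3 SD above the mean of all compounds, about 16000 in these data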;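 note: 100 nL of 1 mM stock went into each well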
Sa ugtP lethal: growth inhibition of S. aureus ugtP deletion strain; growth inhibition, % (test concentration not listed); 330,000 compounds, 0.54% hits; S. aureus RN4220 ugtP deletion, OD600 growth, 16 h; some inactives read as strong as hits;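 active = z-score under -3 and OD600 up to 0.15 on both plates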;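 note: plate controls were untreated wells for no effect and antibiotic for full effect; wells of about 80 µL received 100 nL stock; the first replicate is given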
Mtb hypoxia inh: inhibitors of hypoxia-regulated fluorescent reporter in Mycobacterium tuberculosis; 300,000 compounds, 0.1% hits; M. tuberculosis hypoxia-regulated fluorescent reporter, fluorescence; fluorescence inhibition, % (no concentration beside the values);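 active = 35 to 45% if threefold the growth effect, above 45% if 1.5-fold the growth effect; inactive = the rest, general growth blockers included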;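 note: wells of about 50 µL received 100 nL stock; 0% = vehicle wells and 100% = reference inhibitor wells; whole bacteria with a GFP reporter of the hypoxia response; strong numbers were not always called active; many hits fall short of the cut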
PrP UTR inh: suppresses PrP 5' UTR mRNA reporter expression; cell-based PrP 5' UTR mRNA reporter, plate reader; 340,000 compounds, 0.35% hits; inhibition, % (test concentration not listed);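 active = every replicate at 50% or more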;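 note: 0 = median of the neutral control wells; tested in H4 reporter cells; numbers are from one replicate; inactives centre near -14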
BJeLR viability: kills HRASV12-expressing BJeLR cells | inhibition, % (no concentration beside the values) | AID 1554 | 300,000 compounds, 0.17% hits | BJeLR (HRASV12) viability, CellTiter-Glo ATP luminescence, 48 h; reference of the scale not given here;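 active = replicate mean above 50%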;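 note: 50 nL library stock added to about 25 µL; numbers are from one replicate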
Sa RN4220 lethal: S. aureus RN4220 growth inhibition | inhibition, % (test concentration not listed) | 330,000 compounds, 0.33% hits | OD600, 16 h;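 active = z-score of -3 or lower and OD600 up to 0.18 on both plates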;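 note: plate controls were untreated cells for no effect and reference antibiotic for full effect; stock transfer was 100 nL into about 80 µL; one replicate is shown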
Mtb hypoxia inh growth: second read-out of Mtb hypoxia inh, no call of its own (marks repeat the call); growth inhibition, %; measured here: M. tuberculosis growth (absorbance);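 0% = vehicle and 100% = reference antibiotic; read after six days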
* marks the source's active call; other numbers are inactive results; x = no result given; & = joins results of further samples.

SMILES	Bead autofluor	Sa ugtP lethal	Mtb hypoxia inh	Mtb hypoxia inh growth	PrP UTR inh	BJeLR viability	Sa RN4220 lethal
O=C(CSc1nnc(C2CC2)n1-c1ccccc1)NCCc1ccc(F)cc1	2832	2	x	x	-8	-1	-1.9
COc1cc(CN2CCc3ccccc3C2)cc([N+](=O)[O-])c1O	x	9	8	4	-14	1	0.9
Cn1cc(CCNC(=O)CCc2nnc(CCCCc3ccccc3)o2)cn1	4603	7	11	0	-15	0	4.0
COc1ccc(C(=O)Nc2ccc(S(=O)(=O)NC(C)C)cc2)cc1	9928	1	9	13	17	-3	6.4
O=C(Cn1nnc(-c2ccc(CN3CCOCC3)cc2)n1)N1CCCc2ccccc21	22876*	8	-2	6	-18	5	7.8
O=C(C1CCCN(S(=O)(=O)c2cccc3nsnc23)C1)N1CCc2ccccc21 (configuration not stated)	4245	-4	6	8	-20	1	5.6
CCOC(=O)C1(CCc2ccccc2)CCN(C(=O)c2occc2C)CC1	4898	0	3	6	-34	-7	6.3
Cc1cc(C)c(S(=O)(=O)N2CCCC(C(=O)NCc3ccccn3)C2)c(C)c1 (configuration not stated)	3911	0	0	-6	-18	3	3.9
O=c1cc(S(=O)(=O)Cc2ccccc2)[nH]c(=O)[nH]1	4189	1	13	14	-33	x	1.5
Cn1c(CCC(N)=O)nnc1SCC(=O)Nc1ccccc1C(=O)NC1CC1	3980	7	5	-10	-35	x	2.2
COCCCn1c(=O)c2sccc2n2c(CCCC(=O)N3CCN(c4ccccn4)CC3)nnc12	5558	4	7	3	-2	-7	1.4
Cc1ccc(-c2nnc(Nc3ccc(C(=O)N(C)C)cc3)c3ccccc23)cc1S(N)(=O)=O	3047	9	-25	1	x	-6	1.1
Cc1cc(C)c(NC(=O)CSc2nc3[nH]ncc3c(=O)[nH]2)c(C)c1	2807	7	4	-1	-13	-3	4.5
CCN(CC(=O)NCc1cccs1)C(=O)C1CC(=O)N(c2ccc(OC)cc2OC)C1 (configuration not stated)	6637	5	2	-5	-2	7	1.0
O=[N+]([O-])c1ccc(-c2c(-c3ccccc3)ncc3cc(F)ccc23)cc1	2974	3	7	18	-15	x	4.8
O=C1/C(=C/c2ccc(O)c(O)c2)SC(=S)N1Nc1ccccc1	2977	-29	25	-2	-46	-7	-2.9
Cc1ccc(OCCNS(=O)(=O)c2cccs2)cc1	9271	3	3	-1	-32	-13	7.0
COc1ccc(CC(=O)Nc2ccc(-c3nnc(-c4ccc(C)cc4)o3)cc2)cc1	4329	-7	-3	7	-11	0	-1.3
CN(C)CCn1c(=S)[nH]c2ccc(Cl)cc2c1=O	4268	2	5	4	-12	21	5.0
CC12CCC3C(CC=C4CC(O)CCC43C)C1C/C(=C\N1CCCC1)C2=O (configuration not stated)	x	7	6	5	x	11	3.0
COc1ccc(C(=O)Nc2cccc(C)c2)cc1S(=O)(=O)N1CCOCC1	7837	0	16	8	-23	9	2.8
COC(=O)N/N=C/c1cc(Cl)cc(Cl)c1OCc1ccccc1	1992	x	x	x	-28	1	x
c1ccc(Cn2nnnc2CN2CCCC2)cc1	9256	2	8	6	-20	-12	5.3
COc1ccc(C=NNC(=O)c2cc(C)oc2C)cc1O	2899	1	12	2	-105	x	-0.7
Fc1ccccc1-c1cc2ccccc2cn1	4160	-4	7	4	-51	x	3.7
Cc1ccc(Cl)c2c1=NC(=O)C=2c1[nH]c(=S)[nH]c1O	2708	-2	-6	12	-25	-1	1.2
O=C(CCSCc1ccccc1F)NCCc1ccccc1	4063	1	0	-2	-17	-11	5.2
CCOc1ccc(C(=O)NC2CCN(S(=O)(=O)CC)CC2)cc1	4431	2	1	7	-14	-1	0.6
CC(C)[C@H](NC(=O)OC(C)(C)C)C(=O)NN=Cc1ccc2nccnc2c1	x	3	-4	-19	x	x	0.4
N#Cc1c(N)n(CCOC(=O)c2cccc([N+](=O)[O-])c2)c2nc3ccccc3nc12	3816	1	8	8	-21	0	6.8
Cc1ccc(NC(=O)CSCC(=O)Nc2ccc(S(=O)(=O)N3CCOCC3)cc2)cc1	5505	-8	-5	2	-6	7	-3.2
COCC(C)NS(=O)(=O)c1ccccc1 (configuration not stated)	4637	-1	8	7	-10	-4	0.4
CCOc1ccc(OCc2nnc(SCC(=O)NC3CCS(=O)(=O)C3)n2-c2ccc(Cl)cc2)cc1 (configuration not stated)	3093	-4	8	8	-19	5	5.0
CCC1CCCCN1CCCNC(=O)C1CCC(CNS(=O)(=O)c2c(C)cc(C)cc2C)CC1 (configuration not stated)	4121	4	-1	-5	8	16	3.8
Cc1cc([N+](=O)[O-])ccc1NCc1ccc2c(c1)OCCO2	3792	2	-2	2	-26	2	-2.6
COc1ccccc1Cn1cccc1C=O	4211	2	9	3	-31	-7	1.9
COc1ccc(NS(=O)(=O)c2ccc(NC(=S)NCC3CCCO3)cc2)cc1 (configuration not stated)	5939	4	0	8	-14	-15	2.4
C=CCNC(=O)NC(=O)COC(=O)C(C)Oc1ccc(Cl)cc1Cl (configuration not stated)	10463	8	-4	-6	-44	-1	5.6
COCCCn1c(SCC(=O)Nc2ccc(C(=O)OC)cc2)nc2ccccc2c1=O	6115	3	4	12	-27	1	13
COC(=O)c1c(NC(=O)C2CCC2)sc(C(=O)N(C)C)c1C	17349*	0	1	2	-11	-21	8.0
CCN(C[C@H]1N[C@@](CC)(C(=O)OC)[C@H]2C(=O)N(Cc3ccccc3)C(=O)[C@@H]12)C(=O)COC	3773	1	-4	8	8	x	1.4
CCc1noc(C)c1C(=O)OC(C)C(=O)Nc1ccc2c(c1)OCO2 (configuration not stated)	3486	6	5	7	-29	x	0.0
O=C(NC1=NCCS1)C1CCN(S(=O)(=O)c2ccc(Cl)cc2)CC1	5693	2	-11	-2	1	x	3.9
CCN1CCc2c(sc(NC(=O)c3ccc(C(=O)c4ccccc4)cc3)c2C(N)=O)C1	6112	-21	-4	16	-5	-5	-10
COc1ccccc1-n1c(-c2cccnc2)n[nH]c1=S	8007	5	7	-3	-15	0	0.7
Cc1cccc(NC(=O)COC(=O)c2ccc3c(c2)OCO3)c1C	4217	-1	-3	-2	-16	5	0.7
Cc1nn(-c2ccccc2)c(C)c1NS(=O)(=O)c1ccccc1	7799	8	-1	-2	11	2	5.7
Cc1cccc(S(=O)(=O)N/N=c2\sc3ccccc3n2C)c1	3279	x	x	x	-15	-6	x
Cc1cccc(N=Cc2cc(Br)cc(Cl)c2O)c1	4333	-8	9	14	-22	3	-2.0
CCCCP(=O)(CCCC)Cc1ccccc1	2943	5	4	4	-3	-2	8.5
Cc1ccccc1NC(=O)C1CCCN(S(=O)(=O)c2cccc3cccnc23)C1 (configuration not stated)	6015	2	x	x	8	-3	3.0
CCCCc1nc2cc(C(=O)NCCc3c(C)n[nH]c3C)ccc2o1	5823	-1	9	5	-9	-4	4.5
COc1ccccc1N1CCN(C(=S)Nc2ccccc2)CC1	3979&5684	6	14	3	6	1	2.5
CCOc1ccccc1N1CCN(C(=O)c2ccc(OCC(=O)N3CCOCC3)c(OC)c2)CC1	5937	1	2	9	-25	4	1.2
O=[N+]([O-])c1cc(C(F)(F)F)ccc1NCCNC(=S)Nc1ccc(Cl)cc1	8168	90*	-2	1	-20	3	85*
CCN1CCS/C1=C\C=C\C1=[N+](CC)CCS1	4656	-5	19	11	-5	12	5.8
COc1nc(N(C)S(=O)(=O)c2ccc(C)cc2)nc(C)c1Cl	11173	3	13	13	x	x	2.2
O=C(Cn1c(=O)cnc2ccccc21)NC1CCC(O)CC1 (configuration not stated)	6340	5	-10	-2	-12	-6	4.3
O=C(Cc1cc2ccccc2o1)NCc1ccc(F)cc1	3817	1	-6	-3	2	0	-3.5
O=C(/C=C/c1ccc(Br)cc1)N1CCN(c2cccc(C(F)(F)F)c2)CC1	2450	-11	3	7	-9	4	0.7
Next compounds:
SMILES	Bead autofluor	Sa ugtP lethal	Mtb hypoxia inh	Mtb hypoxia inh growth	PrP UTR inh	BJeLR viability	Sa RN4220 lethal
CCCCn1c(N)c(N(C)C(=O)c2cccc(-n3cnnn3)c2)c(=O)[nH]c1=O	4039	6	6	1	-27	x	2.9
COc1cc(OCC(=O)NC(C)C)cc2c1C(=O)O[C@@H](C)CCCC(=O)CCCCC2	3228	6	-6	0	x	1	3.5
O=S(=O)(c1ccc(Cl)cc1)N1CCSC1c1ccco1 (configuration not stated)	6117	-6	10	11	-11	x	5.2
CCOC(=O)c1cccc(NC(=O)C2CCCN2S(=O)(=O)c2cccc3cccnc23)c1 (configuration not stated)	5400	7	x	x	-7	13	-1.2
COC(=O)C1=C(c2ccccc2)CC2CCC1N2C(=O)NCCS(C)=O (configuration not stated)	x	-1	1	-2	x	x	1.9
COc1ccc(OC)c(NC(=O)c2ccc(OC3CSC3)cc2)c1	3616	10	6	17	-20	-9	4.9
Cc1onc(-c2ccccc2)c1C(=O)Nc1ccc(S(=O)(=O)NC(C)(C)C)cc1	3887	-2	-7	8	0	-1	-0.6
COc1ccc(N2CC2c2ccncc2)cc1 (configuration not stated)	3581	14	12	17	-21	-2	-6.4
O=c1c2cn(Cc3ccccc3)c3ccccc3c-2nn1Cc1ccc(F)cc1Cl	3383	15	5	1	-7	19	-1.4
COc1ccc(-c2nc(C#N)c(NCc3ccc(F)cc3)o2)cc1OC	3080	-16	6	6	-16	4	-18
C=CCN1C(=O)C(O)(CC(=O)c2ccccc2)c2ccccc21 (configuration not stated)	4819	-13	x	x	-15	-15	2.0
CCc1nnc(NC(=O)C2CC(=O)N(C3CCCCC3)C2)s1 (configuration not stated)	5783	4	1	8	-5	-1	0.9
O=C(CN(C(=O)c1csnn1)c1ccc(Cl)cc1)NC1CCCC1	3618	13	9	-1	-19	-6	2.9
Cn1ccc(NC(=O)Nc2ccc(Cl)cc2Cl)n1	6832	-1	1	-4	-66	-1	-5.2
O=C(CN1C(=O)NC(CCc2ccccc2)C1=O)N1CCCCCC1 (configuration not stated)	3652	7	4	-2	-12	x	6.8
O=C(O)c1ccc(-c2nnc(-c3ccc([N+](=O)[O-])cc3)o2)cc1	4180	3	-3	7	13	3	-0.7
O=C1NCCN(Cc2ccc(F)cc2)C1CC(=O)N1CC=C(c2ccccc2)CC1 (configuration not stated)	4868	8	11	-2	-10	-2	3.3
COc1ccc2c(c1)c(C(=O)O)c(C)n2CCc1ccc(OC)c(OC)c1	3472	2	-4	10	-22	4	6.6
CC(=O)N1N=C(c2ccc(C)cc2)OC1c1ccc(Br)cc1 (configuration not stated)	3349	0	6	-5	-82	-6	5.0
COc1ccc(Br)cc1C1NC(=O)c2c(sc3c2CCN(C)C3)N1 (configuration not stated)	3247	0	1	-4	-3	x	1.0
O=C(Cc1c[nH]c2ccccc12)Nc1cccc(S(=O)(=O)N2CCCCC2)c1	x	1	-2	1	x	0	0.1
Cc1ccc(C)c(S(=O)(=O)N2CCCC2CNC(=O)C(=O)NCc2ccccc2)c1 (configuration not stated)	6031	x	x	x	4	12	x
CSCCC(C(=O)N(C)CC(=O)Nc1cccc(F)c1)N1C(=O)c2ccccc2C1=O (configuration not stated)	2848	14	10	4	7	x	5.7
COc1cc(C2Nc3ccc4ncccc4c3C3=C2C(=O)CC(C)(C)C3)cc(OC)c1O (configuration not stated)	23335*	26	1	9	-10	1	7.3
CC(C)(C)NC(=O)C(c1ccco1)N(C(=O)c1csnn1)c1ccccc1 (configuration not stated)	5881	-1	-10	6	-13	2	2.4

3 compounds already listed, ordered by heavy-atom count, rising:
SMILES	Bead autofluor	Sa ugtP lethal	Mtb hypoxia inh	Mtb hypoxia inh growth	PrP UTR inh	BJeLR viability	Sa RN4220 lethal
O=C(CN(C(=O)c1csnn1)c1ccc(Cl)cc1)NC1CCCC1	3618	13	9	-1	-19	-6	2.9
O=C(CN1C(=O)NC(CCc2ccccc2)C1=O)N1CCCCCC1 (configuration not stated)	3652	7	4	-2	-12	x	6.8
O=C(Cc1c[nH]c2ccccc12)Nc1cccc(S(=O)(=O)N2CCCCC2)c1	x	1	-2	1	x	0	0.1

Complete entries from above.
`COc1ccc2c(c1)c(C(=O)O)c(C)n2CCc1ccc(OC)c(OC)c1` is listed as Bead autofluor: 3472; Sa ugtP lethal: 2; Mtb hypoxia inh: -4; Mtb hypoxia inh growth: 10; PrP UTR inh: -22; BJeLR viability: 4; Sa RN4220 lethal: 6.6
`Cn1ccc(NC(=O)Nc2ccc(Cl)cc2Cl)n1` is listed as Bead autofluor: 6832; Sa ugtP lethal: -1; Mtb hypoxia inh: 1; Mtb hypoxia inh growth: -4; PrP UTR inh: -66; BJeLR viability: -1; Sa RN4220 lethal: -5.2

Compound activity: PubChem BioAssay, several laboratories
